From PubChem
Hsc70: Hsc70 inhibitors, probe displacement, primary screen, biochemical, fluorescence polarization (AID 568); Hsc70 fluorescence polarization, probe displacement; higher % means a stronger effect; strong numbers were not always called active; displacement, % at 20 µM; hits with a dose series show IC50 in µM; 83,000 tested, under 10 active;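 active means displacement above 50% without optical interference and an IC50 on retest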;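 further: ATPase domain with a fluorescein-tagged ATP probe; 0% = vehicle and 100% = excess ADP; read after one hour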
WNV protease inh: inhibitors of West Nile virus NS2B-NS3 protease. P06935. hit rate 0.18% among 65,000. z-score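 (tested at a level between 10 and 100 µM)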. WNV NS2B-NS3 protease, fluorogenic substrate Ex360/Em465; active compounds read low;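 active means z-score at -3 or under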;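 further: score is relative to mean and spread of the compound wells of a plate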
Target sequence (P06935 1371-1501 limits assumed): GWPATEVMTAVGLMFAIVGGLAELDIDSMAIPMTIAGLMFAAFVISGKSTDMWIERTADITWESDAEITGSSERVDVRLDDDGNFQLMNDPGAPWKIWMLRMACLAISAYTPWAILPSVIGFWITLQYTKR
Target sequence (P06935 1502-1679 limits assumed): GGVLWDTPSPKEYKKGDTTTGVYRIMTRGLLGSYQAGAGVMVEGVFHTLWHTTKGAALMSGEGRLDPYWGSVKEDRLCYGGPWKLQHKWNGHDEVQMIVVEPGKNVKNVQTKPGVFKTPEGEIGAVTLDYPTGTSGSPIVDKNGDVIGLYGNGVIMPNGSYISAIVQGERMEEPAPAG
MT1-MMP promoter: MT1-MMP gene expression reporter suppression – cell-based, luciferase reporter, luminescence (AID 618) | MT1-MMP promoter luciferase reporter cells, luminescence | calls from a first round at 10 µM; hits with a dose series show EC50 in µM | hit rate 0.62% among 87,000;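 active means over half of the reporter light lost at 10 µM or EC50 under 50 µM; inactive means the rest and hits that failed the dose series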;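 further: actives suppress MT1-MMP promoter-driven transcription so potencies describe inhibitors; HT1080 fibrosarcoma cells; overnight exposure; toxic or luciferase-blocking compounds were not removed from the actives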
An asterisk follows results filed as active; i = inactive; . = not tested or not shown. The list is partial; count on the stated rates, not on these rows.

SMILES	Hsc70	WNV protease inh	MT1-MMP promoter
O=C(O)c1ccc(CSCc2c(F)cccc2Cl)o1	-7.8%	-0.87	i
CCCS(=O)(=O)N1CCCC(C(=O)NCCCOCC)C1 (stereo not given)	4.2%	-1.1	i
CCOC(=O)Cc1c[nH]c2ccccc12	-4.4%	1.1	i
CCN(C(=O)c1sc(N)c(C#N)c1C)C1CCCCC1	-1.0%	-0.32	i
COc1ccc(C2CC(=O)N3CN(c4ccc(C)c(Cl)c4)CSC3=C2C#N)cc1OC (stereo not given)	-0.3%	-1.8	i
CCCC(=O)Nc1c2c(nn1-c1ccc(OC)cc1)CS(=O)C2 (stereo not given)	7.6%	-0.96	i
COc1ccc(C(=O)N2CCN(c3nc4cc(C)ccc4cc3C#N)CC2)c(OC)c1	-0.1%	-0.72	i
CCN(CC)S(=O)(=O)c1cccc(C(=O)NCCc2ccccc2)c1	-6.6%	.	i
COc1ccc(C(=O)Nc2nnc(C(F)(F)F)s2)cc1	-2.9%	1.8	i
Cc1cc(C(=O)NCc2cccs2)cs1	5.9%	-0.86	i
CCCC(c1nnnn1C(C)(C)CC)N(Cc1ccco1)Cc1cc2ccc(OC)cc2[nH]c1=O (stereo not given)	-6.7%	-0.16	i
Cc1ccc(NC(=O)c2nnn(-c3cc(C)cc(C)c3)c2N)cc1	-4.6%	1.2	i
CN(C(=O)Nc1ccccc1)C1CCS(=O)(=O)C1 (stereo not given)	0.5%	.	i
Cc1ccc2c(Cl)cc(Cl)c(OCC(=O)NC(=O)NCc3ccco3)c2n1	-3.5%	-1.2	i
Cc1ccccc1CSc1nnc(-c2cccs2)n1Cc1ccco1	-5.7%	.	i
N#Cc1cnc(SCC(=O)c2ccccc2)nc1N	-1.6%	-0.71	i
Fc1cc2ncn(Cc3ccccc3)c2cc1F	-2.2%	2.2	i
OCCN(CCO)c1ncnc2c1sc1nc(N3CCOCC3)c3c(c12)CCCC3	-3.0%	-0.15	i
O=S(=O)(CCN(CCS(=O)(=O)C(F)(F)F)CC1CCCO1)C(F)(F)F (stereo not given)	2.8%	-0.16	i
CCOC(=O)c1cn(CC)c2cc(N3CCSCC3)c(F)cc2c1=O	1.7%	-0.59	i
COc1cccc(-n2c(SCC(=O)Nc3nccs3)nnc2-c2ccoc2C)c1	-2.1%	.	i
CS(=O)(=O)N1CCN(C/C=C/c2ccccc2)CC1	-1.3%	.	i
COc1ccc(Cn2cccc(NC(=O)Nc3cccc(C#N)c3)c2=O)cc1	-3.1%	.	i
CN(c1ccc(C(=O)Nc2ccccc2C(F)(F)F)cc1)S(C)(=O)=O	3.1%	0.38	i
COc1ccc(NC(=O)c2c(NC(=O)CNCc3ccco3)sc3c2CCC3)c(OC)c1	-1.4%	-0.22	i

Continuation.
SMILES	Hsc70	WNV protease inh	MT1-MMP promoter
CCCCC(=O)Nc1ccc2c(c1)nc(CCN1CCOCC1)n2C	-1.5%	-0.56	i
c1ccc2c(c1)N1CCN=C1N2CCN1CCCCC1	1.0%	-0.5	i
Oc1ccc(CNc2ccccc2)c2cccnc12	-6.2%	2.2	i
CC1(C)CC(=O)c2c(nn(-c3ccccc3)c2N)C1	2.9%	0.94	i
COCCn1c(CN2CCN(c3ccc(F)cc3)CC2)nc2c1c(=O)n(C)c(=O)n2C	-3.2%	-1.3	i
O=C(c1ccco1)N1N=C(c2cccs2)CC1c1ccc(F)cc1 (stereo not given)	-1.3%	.	i
CSCCOC(=O)C1=C(C)NC(=O)CC1c1ccccc1Cl (stereo not given)	0.5%	-1.2	i
O=C(O)CCCn1nc(C(F)(F)F)c2c1CCCCC2	-5.2%	0.91	i
CC(=O)NC(Cc1ccccc1F)C(=O)NC1CCN(C(=O)c2cnccn2)CC1 (stereo not given)	1.0%	0.85	i
COc1ccc(CCNC(=O)c2ccc(NS(=O)(=O)c3c(C)noc3C)cc2)cc1OC	-4.0%	-1.3	i
COCc1cc(C)n(CC(=O)NC(C)c2ccccc2)c(=O)c1C#N (stereo not given)	-7.1%	-1.2	i
O=C(NCC(=O)N(Cc1ccccc1)C(C(=O)NC1CCCC1)c1ccco1)c1ccco1 (stereo not given)	-1.7%	0.55	i
CCN(Cc1ccccc1)S(=O)(=O)c1ccc(C(=O)Nc2nnc(-c3ccccc3OC)o2)cc1	-4.2%	1.5	i
CCC(CC)C(=O)Nc1cc(C)cc(C)c1	0.7%	-0.24	i
CCCn1nc(C(=O)Nc2cccc(C(=O)OC)c2)c2ccccc2c1=O	0.7%	0.05	i
CCOC(=O)C(C(=O)Nc1ccccn1)C1CCCCC1 (stereo not given)	-0.1%	.	i
Cc1cc(=O)oc2cc(OCC(=O)Nc3nnc(CC(C)C)s3)ccc12	-8.9%	.	i
CC1=CC(C)C2C(=O)N(c3ccccc3)C(=O)C2C1 (stereo not given)	1.4%	.	i
CCOC(=O)c1nnn(-c2nonc2N)c1CN(C)C1CCCCC1	-1.6%	-1.4	i
O/N=C(/CN(O)/C=C1/C=CC=N1)c1cccs1	0.3%	-1.2	i
COc1ccccc1NC(=O)CN1CCN(CC(=O)Nc2ccc(OCc3ccccc3)cc2)CC1	-0.2%	0.18	i
Cn1c(N)c(C(=O)CSc2ccc3c(c2)OCCO3)c(=O)n(C)c1=O	-5.1%	-1.2	i
CCOC(=O)C1CCN(C(=O)Cn2cc3c(n2)CCC(C)C3)CC1 (stereo not given)	3.5%	-0.51	i
Cc1cc(-c2ccc(N3C(=O)CCC3=O)c(C)c2)ccc1N1C(=O)CCC1=O	-2.3%	-0.9	i
Cc1cc(S(=O)(=O)NCCN2CCOCC2)c(C)s1	0.8%	-0.21	i

(cont.)
SMILES	Hsc70	WNV protease inh	MT1-MMP promoter
CCOC(=O)Cc1csc(Nc2c(C)n(C)n(-c3ccccc3)c2=O)n1	-1.9%	0.2	i
CCCC(=O)N1CCN(c2ccc(NC(=O)c3ccc(Br)o3)cc2)CC1	-5.1%	-0.07	i
CCn1c(SCC(=O)Nc2cc(C)on2)nc2sc(C)c(C)c2c1=O	-27%	1.6	i
CCOC(=O)N1CCN(c2nc3c(c(=O)[nH]c(=O)n3C)n2Cc2ccccc2Cl)CC1	-4.5%	-0.33	i
Cc1nc(N)sc1Cc1ccc2c(c1)OCO2	5.2%	0.57	i
O=C(c1ccc(Br)o1)N1CCN(c2ccccc2F)CC1	-3.0%	-0.3	i
Cc1cc(NC(=O)C(C)(C)C)no1	6.4%	0.14	i
Cn1ncc(C#N)c1NC(=O)C1CC(c2ccc(Cl)c(Cl)c2)=NO1 (stereo not given)	-5.1%	.	i
COCCN1C(=O)c2oc3ccccc3c(=O)c2C1c1ccc(OC)c(OC)c1 (stereo not given)	-2.2%	1.7	i
OC(COc1ccc2ccccc2c1)CN1CCCC1 (stereo not given)	-4.3%	1.9	i
CCOc1ccc(N2CC(C(=O)Nc3ccc(F)cc3F)CC2=O)cc1 (stereo not given)	-1.0%	-0.06	i
Cc1cc(C(=O)CSc2nnc(-c3ccco3)o2)c(C)n1-c1ccc2c(c1)OCCO2	-1.3%	-0.38	i
CCOC(=O)c1ccccc1NC(=O)c1ccccc1NS(C)(=O)=O	-2.9%	0.57	i
CCCCNc1cc(=O)oc2ccccc12	1.7%	.	i
COC(=O)c1ccc(NC(=O)Cc2ccccc2)cc1	-13%	0.04	i
COc1ccc(NC(=O)CCN2CCCCCC2)cc1	2.1%	.	i
COc1ccc(Cn2nnnc2C(c2ccccc2Cl)N2CCC(C(N)=O)CC2)cc1 (stereo not given)	2.3%	.	i
CCN1C(=O)c2ccccc2S(=O)c2ccc(C(=O)N3CCN(C(=O)c4ccco4)CC3)cc21 (stereo not given)	3.5%	-0.22	i
Cc1ccc(N2CC(C)Cn3c2nc2c3c(=O)n(CC(=O)OCc3ccccc3)c(=O)n2C)cc1C (stereo not given)	1.6%	1.8	i
CCOc1ccc(C(=O)OC2CCN(C)CC2)cc1	-1.2%	.	i
O=C(OC(C(=O)NCc1cccs1)c1ccccc1F)c1ccco1 (stereo not given)	1.7%	.	i
Cc1cc(C(=O)NCCCOC(C)C)c2ccccc2n1	3.5%	.	i
CCCn1c(=O)c2ccccc2n2c(SCc3nc4ccccc4s3)nnc12	-13%	0.21	i
CCCOc1ccc(-c2nnn(CC(=O)Nc3cccc(C(=O)OC)c3)n2)cc1	-5.0%	0.42	i
CSc1ccc(S(=O)(=O)Nc2ccc(NC(C)=O)cc2)cc1	-1.7%	-0.67	i

More entries:
SMILES	Hsc70	WNV protease inh	MT1-MMP promoter
CNC(=O)c1ccsc1NC(=O)CN1C(=O)CCC1=O	3.5%	-0.79	i
CCOC(=O)Cc1nn(C)c(=O)c2ccccc12	-4.7%	-0.47	i
C=CCOC(=O)c1sc(NC(=O)c2ccco2)nc1C	-1.3%	-1.4	i
OC(c1ccc2c(c1)OCO2)c1nccc2ccccc12 (stereo not given)	1.2%	-1.3	i
CCc1ccc(N2C(=O)C3ON(c4ccccc4)C(c4ccco4)C3C2=O)cc1 (stereo not given)	3.3%	1.5	i
O=C(CCC1COc2ccccc2O1)N1CCCC1 (stereo not given)	-0.2%	1	i
O=C(CCC(=O)OCC(=O)c1ccccc1)NC1CCCCC1	1.2%	-0.04	i
N#CC1=C(N)Oc2c(oc(CO)cc2=O)C1c1cccs1 (stereo not given)	8.6%	1.2	i
O=C(COc1nc2ccccc2nc1N1CCOCC1)N1CCc2ccccc21	-19%	0.09	i
Cc1ccc2c(c1)CC1(CN2C)C(=O)OC(C)(C)OC1=O	-3.2%	.	i
CCOC(=O)CNC(=O)c1cn(CC)c(=O)c2cc(OC)c(OC)cc12	1.3%	-1.6	i
CC(C)C1OC2c3cccc4cccc(c34)C2N1c1ccccc1 (stereo not given)	-5.7%	.	i
COCCn1c(SCC(=O)Nc2cc(C)on2)nnc1-c1ccco1	2.3%	.	i
Cc1cccc2cc(CN(Cc3ccco3)C(=O)c3cccs3)c(=O)[nH]c12	1.3%	0.48	i
Cc1ccc(N2CC(C(=O)NCc3ccccn3)CC2=O)cc1 (stereo not given)	-0.9%	-1.8	i
CCOc1ccccc1NC(=O)c1ccc2nccnc2c1	-1.7%	-0.44	i
COc1ccc(-c2nc(C(N)=O)c3[nH]c(=O)n(-c4ccccc4OC)c3n2)c(OC)c1	-4.1%	-0.32	i
COc1ccc(NC2CS(=O)(=O)CC2NCc2ccco2)cc1 (stereo not given)	3.7%	0.24	i
COC(=O)CN(n1cnnc1)S(=O)(=O)c1ccccc1Cl	3.1%	.	i
CCOC(=O)c1c(C)[nH]c(C=Nc2ccc(OC)cc2)c1O	-3.2%	.	i
Cc1cccc(-c2nc(CSCC(=O)N3CCN(Cc4ccc5c(c4)OCO5)CC3)c(C)o2)c1	-4.5%	-0.85	i
CC[N+](C)(C)Cc1ccccc1Br	-3.8%	0.39	i
CN(CC(=O)NCc1cccc(F)c1)C(=O)c1ccco1	8.0%	-2.6	i
CN(C)CCN(Cc1ccccc1)c1ccccn1	1.0%	-0.51	i
COCCSc1nnc(NS(=O)(=O)Cc2ccccc2)s1	3.8%	-0.87	i

Further compounds
SMILES	Hsc70	WNV protease inh	MT1-MMP promoter
COc1ccc(/C=C2\C(=O)N(c3nc(-c4ccc(Br)cc4)cs3)N=C2c2ccccc2)cc1	5.5%	.	i
COC(=O)c1[nH]c2cc(OC)ccc2c1NC(=O)CN1CCOCC1	4.2%	-0.01	i
CCOC(=O)c1ccc(NC(=O)CN2CCc3ccccc3C2)cc1	1.9%	-0.19	i
CCOC(=O)c1cc(NC(=O)N(C(C)C)C(C)C)c(C)nc1C	-5.6%	.	i
O=C(O)CCCNCc1ccccc1F	2.6%	-0.26	i
CSc1oc(-c2ccco2)nc1S(=O)(=O)c1ccc(Br)cc1	2.1%	0.72	i
CC1(C)Cc2ccccc2-c2nnc(SCC(=O)N3CCN(c4ccccc4)CC3)n21	-1.6%	-0.28	i
C=CCc1ccccc1OCC(O)Cn1ccnc1C (stereo not given)	-0.8%	-0.47	i

Filtered by structure: the entries above containing a thiophene ring, fused or not.
SMILES	Hsc70	WNV protease inh	MT1-MMP promoter
CCN(C(=O)c1sc(N)c(C#N)c1C)C1CCCCC1	-1.0%	-0.32	i
Cc1cc(C(=O)NCc2cccs2)cs1	5.9%	-0.86	i
Cc1ccccc1CSc1nnc(-c2cccs2)n1Cc1ccco1	-5.7%	.	i
OCCN(CCO)c1ncnc2c1sc1nc(N3CCOCC3)c3c(c12)CCCC3	-3.0%	-0.15	i
COc1ccc(NC(=O)c2c(NC(=O)CNCc3ccco3)sc3c2CCC3)c(OC)c1	-1.4%	-0.22	i
O=C(c1ccco1)N1N=C(c2cccs2)CC1c1ccc(F)cc1 (stereo not given)	-1.3%	.	i
O/N=C(/CN(O)/C=C1/C=CC=N1)c1cccs1	0.3%	-1.2	i
Cc1cc(S(=O)(=O)NCCN2CCOCC2)c(C)s1	0.8%	-0.21	i
CCn1c(SCC(=O)Nc2cc(C)on2)nc2sc(C)c(C)c2c1=O	-27%	1.6	i
O=C(OC(C(=O)NCc1cccs1)c1ccccc1F)c1ccco1 (stereo not given)	1.7%	.	i
CNC(=O)c1ccsc1NC(=O)CN1C(=O)CCC1=O	3.5%	-0.79	i
N#CC1=C(N)Oc2c(oc(CO)cc2=O)C1c1cccs1 (stereo not given)	8.6%	1.2	i
Cc1cccc2cc(CN(Cc3ccco3)C(=O)c3cccs3)c(=O)[nH]c12	1.3%	0.48	i
